# Assay outcomes: PubChem BioAssay, National Center for Advancing Translational Sciences (NCATS)
# Vaccinia mCherry: inhibitors of vaccinia virus infection (mCherry reporter signal). Vaccinia virus mCherry reporter infection, fluorescence; about a quarter of the inactives have no number. Potency, µM (series often up to 36.5 µM), without a hit: at the highest dose activity change, negative = inhibition, hits mostly inhibitors. 310,000 tested, 0.63% active. AID 720579; active = well fitted inhibition curve with a large enough effect; inconclusive = small, poorly fitted or top-dose-only effect; inactive = no such curve, though single readings can be large or run the other way; tested in A549 cells; further: nearly all actives have a fitted effect of over 35% in size; inactives centre near -10
# VACV Venus inh: inhibitors of vaccinia virus (Venus reporter) | Vaccinia virus Venus reporter expression, fluorescence | 330,000 tested, 0.46% active | AID 720580 | Potency, µM (series often up to 36.5 µM), inactives show top-dose activity change, negative = inhibition, most hits filed as inhibitors; active means well fitted inhibition curve with a large enough effect; inconclusive means small, poorly fitted or top-dose-only effect; inactive means no such curve, though single readings can be large or run the other way; tested in A549 cells; further: nearly all actives have a fitted effect of over 30% in size; inactives centre near -10
# Active calls of the source: *; i = inactive; ? = inconclusive; · = no result given; & = joins results of further samples; [ ] = remark or other dose. On the % scale 0 is the no-effect control and ±100 the full control effect; potency means the concentration at half of the fitted maximal effect.
SMILES,Vaccinia mCherry,VACV Venus inh
COC(=O)c1c(C)[nH]c(C(=O)CC#N)c1C,i,22%
CC(=O)Nc1cccc(NC(=O)CSc2ccc(-c3cccnc3)nn2)c1,?,-9%
Cc1c(C(=O)NCc2ccc3c(c2)OCO3)sc(=O)n1Cc1ccc(S(=O)(=O)N(C)C)cc1,-13%,-12%
Cc1ccc(NC(=O)Cn2nc(-c3ccccc3)nc2-c2ccccc2)c(C)c1,-27%,-26%
CC(C)NC(=O)C(C)N1CCN(S(=O)(=O)c2ccc3ccccc3c2)CC1 (stereo not given),i,-11%
COc1ccc(C(=O)NCCCN2CCCC2=O)cc1S(=O)(=O)N1CCOCC1,i,-2%
O=C1CCCCC1C(O)(C(=O)c1ccccc1)c1ccccc1 (stereo not given),-3%,-7%
COc1cccc(C(=O)c2ccncc2C(=O)O)c1OC,-13%,-3%
COCCNC(=O)c1cc2c(c(-c3cccc(-c4cccc(OC)c4)c3)n1)[C@H](CCO)N(S(=O)C(C)(C)C)C2 (stereo not given in full),6%,-10%
Oc1ccc(Nc2nc(-c3ccccc3)nc3ccccc23)cc1,?,?
Cc1cccc(OCCNC(=O)CSc2ccc(C(F)(F)F)cc2[N+](=O)[O-])c1,-13%,-6%
COc1ccccc1CCC(=O)OCC(=O)NC1CCCCC1,i,-5%
CC(C(=O)N1CCCC1)N1CCN(S(=O)(=O)c2ccc(OC(F)(F)F)cc2)CC1 (stereo not given),-5%,-24%
CC(=O)Nc1cccc(-c2ccnc3c2CC(C(=O)NCc2ccncc2)O3)c1 (stereo not given),-14%,-8%
COc1ccc(C(=O)NCC2CCCO2)cc1S(=O)(=O)NCc1ccc(Cl)cc1 (stereo not given),i,-14%
COc1ccc(CN2C(=O)c3ccccc3C2=O)cc1C(=O)Nc1ccccc1N1CCOCC1,-11%,?
Cc1occc1-c1nnc(SCC(=O)N2CCCC(C)C2)o1 (stereo not given),-24%,-13%
Cc1nn(-c2ccc(N3CCCC3)nn2)c(C)c1CCC(=O)N1CCN(c2ccccc2)CC1,-8%,-11%
CC(C)c1ccc(C(=O)Nc2ccc(S(=O)(=O)NC3=NCCCCC3)cc2)cc1,?,?
Cc1ccc(S(=O)(=O)Nc2cccc(S(=O)(=O)N3CCCC3)c2)cc1C,i,-13%
CCCCn1nc2cc(C(=O)NC3CCc4ccccc43)ccc2c1OCC (stereo not given),-8%,-30%
Cc1cc(C)c2nc(-c3ccccn3)cc(C(=O)Nc3ccc(S(=O)(=O)Nc4onc(C)c4C)cc3)c2c1,i,13%
CC1(C)CC(=O)C2=C(C1)NC(=O)CC2c1ccc(N(CCC#N)CCC#N)cc1 (stereo not given),-9%,-13%
O=C(Nc1ccc(S(=O)(=O)Nc2ncccn2)cc1)c1cccc([N+](=O)[O-])c1,i,-16%
CCOC(=O)C1(Cc2cccc(Cl)c2)CCCN(C(=O)CCOC)C1 (stereo not given),i,-4%

# Retrieved one by one from above, seven records:
SMILES,Vaccinia mCherry,VACV Venus inh
O=C(Nc1ccc(S(=O)(=O)Nc2ncccn2)cc1)c1cccc([N+](=O)[O-])c1,i,-16%
CC(=O)Nc1cccc(-c2ccnc3c2CC(C(=O)NCc2ccncc2)O3)c1 (stereo not given),-14%,-8%
O=C1CCCCC1C(O)(C(=O)c1ccccc1)c1ccccc1 (stereo not given),-3%,-7%
CC(C(=O)N1CCCC1)N1CCN(S(=O)(=O)c2ccc(OC(F)(F)F)cc2)CC1 (stereo not given),-5%,-24%
CC(=O)Nc1cccc(NC(=O)CSc2ccc(-c3cccnc3)nn2)c1,?,-9%
Cc1occc1-c1nnc(SCC(=O)N2CCCC(C)C2)o1 (stereo not given),-24%,-13%
Cc1cc(C)c2nc(-c3ccccn3)cc(C(=O)Nc3ccc(S(=O)(=O)Nc4onc(C)c4C)cc3)c2c1,i,13%

# The list goes on.
SMILES,Vaccinia mCherry,VACV Venus inh
CCOc1cc(-c2cc(N)n[nH]2)cc(OCC)c1OCC,-4%,3%
Cc1ccc(-c2noc(CN(C(=O)CCCCCN3C(=O)c4ccccc4C3=O)C(C)C)n2)cc1,·,?
COc1ccc2oc(=O)c(C(=O)N3CCN(c4ccc(C)cc4)CC3)cc2c1,-4%,-13%
COc1c(C(C)C)oc2cc3oc(=O)ccc3cc12,i,-13%
Cc1ccc(-c2noc(-c3nnn(CC(=O)Nc4ccc(C)c(Cl)c4)c3N)n2)cc1,-1%,-2%
Brc1ccc2[nH]c3nc(SCCN4CCOCC4)nnc3c2c1,-4%,-15%&-4%
COc1ccc(C(C[N+](=O)[O-])c2c(-c3ccccc3)cc3ccccn23)c(OC)c1 (stereo not given),-16%,-7%
CC(C)c1ccc(COC(=O)CN2C(=O)NC3(CCCCC3C)C2=O)cc1 (stereo not given),-9%,-8%
CCCCNC(=O)C1CCC(CNc2c(N3CCC(C)CC3)c(=O)c2=O)CC1 (stereo not given),-6%,-3%
COC(=O)c1cccc(NC(=O)CSc2nnc(C)n2Cc2ccccc2)c1,-3%,-17%
NS(=O)(=O)c1ccc(CCNC(=O)C(=O)NCC2OCCN2C(=O)c2ccc3c(c2)OCO3)cc1 (stereo not given),i,-12%
COc1ccc(NC(=O)CCC(=O)OCC(=O)c2ccc(Oc3ccc([N+](=O)[O-])cc3)cc2)cc1,-12%,-5%
COc1ccc(CCNC(=O)Cn2cc(S(=O)(=O)Cc3ccc(F)cc3)c3ccccc32)cc1OC,-18%,-8%
CC/C(=N\NC(=O)Nc1nonc1N)c1ccc(OC)c(OC)c1,-4%,3%
C/C(=N\NC(=O)c1cc(C)nc2ccccc12)c1cccc(Cl)c1,-8%,5%
Cc1nn(C)cc1S(=O)(=O)N1CCN(Cc2ccccc2Cl)CC1,-7%,-7%
CCOc1ccc(-c2cccc(NS(=O)(=O)c3ccccc3[N+](=O)[O-])c2)nn1,i,-12%
O=S(=O)(Cc1cc(Sc2ccccc2)nc(-c2ccccc2)n1)c1ccccc1,-27%,-21%
CCCNCc1nnc(-c2ccccc2Cl)o1,i,-9%
C=CCOc1ccc(/C(O)=C2/C(=O)C(=O)N(CCCn3ccnc3)C2c2ccco2)cc1 (stereo not given),i,1%
COc1cccc(N2CC(NC(=O)c3cccc4ccccc34)CC2=O)c1 (stereo not given),-13%,-11%
CCC1(C)N(O)C(C)(C)C(c2ccc(F)cc2)=[N+]1[O-] (stereo not given),i,-6%
CCN(CC)S(=O)(=O)c1ccc(NS(=O)(=O)c2ccc(O)c([N+](=O)[O-])c2)cc1,-12%,-7%
COc1ccc(NC(=O)COC(=O)CN2C(=O)c3ccccc3C2=O)cc1,-7%,-18%
CC(=O)Nc1ccc(S(=O)(=O)Nc2cc(C)ccn2)cc1,i,-1%

# By substructure: the entries above containing a cyano group (2)
SMILES,Vaccinia mCherry,VACV Venus inh
COC(=O)c1c(C)[nH]c(C(=O)CC#N)c1C,i,22%
CC1(C)CC(=O)C2=C(C1)NC(=O)CC2c1ccc(N(CCC#N)CCC#N)cc1 (stereo not given),-9%,-13%

# (listing goes on)
SMILES,Vaccinia mCherry,VACV Venus inh
O=c1[nH]c(C(F)(F)F)nc2c1nnn2Cc1ccccc1F,-5%,-1%
CCN1CCN(CC(=O)c2c[nH]c3ccccc23)CC1,-19%,-2%
C=CCC[C@H](Cc1ccc(F)cc1)C(=O)OC[C@@H](NC(=O)[C@H](CC=C)CC(=O)NCCO)C(C)(C)C,i,-12%
CC(C)(C)c1nc(N2CCN(C(=O)c3ccco3)CC2)c2nnn(Cc3ccccc3Cl)c2n1,?,?
O=[N+]([O-])c1ccc(CN2CCSCC2)cc1,-1%,-7%
OCC1(Cc2ccccc2)CCN(C2CCN(c3ccccc3F)CC2)CC1,-11%,1%
COc1ccc(CCNC(=O)C2(c3cccs3)CCOCC2)cc1OC,-11%,7%
Cc1ccc(C)c(-c2nc3cc(N)ccc3o2)c1,-4%[1.46 µM],-27%
Cn1cnc(S(=O)(=O)Nc2ccc3c(c2)OCCO3)c1,-19%,-3%
COc1ccc(/C=N/NC(=O)COc2ccccc2-c2ccccc2)cc1,?,3.5µM*
CCC(=O)NCCc1nc2cc(NC(=O)c3ccco3)ccc2n1C,-1%,-5%
Cc1nnsc1NC(=O)OCC(C)(C)C,·,-10%
CCc1sc(C(=O)Nc2ccc3nc(C)sc3c2)cc1C,-13%,-12%
O=C(NCCc1cccc(F)c1)C1CCC(=O)N(CCCc2ccccc2)C1 (stereo not given),-27%,-7%
CCn1c(SCC(=O)Nc2ccc3c(c2)OCO3)nnc1C(C)C,i,-5%
CN(CC(=O)Nc1ccc(F)c(F)c1F)C(=O)c1ccc2c(c1)S(=O)(=O)N=C1CCCCCN12,-8%,-10%
CCN(CC)C(=O)CSc1ncnc2sc(C)c(C)c12,-5%,-8%
CSc1nc(C)cc(Oc2ccccc2)n1,-6%,-19%
CC(=O)Nc1nc2ccc(Br)cc2s1,i,-26%
COc1ccc2oc(C(=O)OCC(=O)NC3CCCCC3)c(C)c2c1,-4%,-5%
CC(Nc1nc(Nc2ccc(F)cc2)nc(SCC(N)=O)n1)c1ccccc1 (stereo not given),-19%,-13%
CC(C)/C(C=O)=C(/NC1CCCCC1)c1ccccc1,i,3%
Cc1ccc(S(=O)(=O)N2CCC(C(=O)N3CCC[C@H]3C(=O)NCC(C)C)CC2)cc1,i,-4%
CC(C)C(=O)NNc1nc2ccccc2s1,i,-21%
CCN(CC)S(=O)(=O)c1cccc(C(=O)NC(Cc2c[nH]c3ccccc23)c2nnc3n2CCC3)c1 (stereo not given),-4%,-9%

# One compound at a time, from the list above. Order of screens: Vaccinia mCherry, VACV Venus inh
# CC(=O)Nc1nc2ccc(Br)cc2s1 reads i, -26%
# CC(=O)Nc1cccc(-c2ccnc3c2CC(C(=O)NCc2ccncc2)O3)c1 (stereo not given) reads -14%, -8%

# (continued)
SMILES,Vaccinia mCherry,VACV Venus inh
Cc1ccccc1C(=O)N1CCC(C(=O)N(CC(C)C)c2c(N)n(Cc3ccccc3)c(=O)[nH]c2=O)CC1,-14%,-3%
CC(=O)Oc1ccc(N2C(=O)CC(N3CCOCC3)C2=O)cc1 (stereo not given),·,-5%
O=C(CCl)N(Cc1cccc([N+](=O)[O-])c1)c1cccc(Cl)c1,-16%,-7%
O=C(Nc1cccc(C(F)(F)F)c1)N1CC2CCCN2c2ccccc21 (stereo not given),-1%,-9%
Cn1cccc1-c1nc2ccccc2n1Cc1ccccc1,-29%,-18%
Cc1ccc(-c2nnc3ccc(SCC(=O)N4CCCc5ccccc54)nn23)cc1,i,-20%
O=S(=O)(NCC1CCCO1)c1ccc(S(=O)(=O)N(Cc2ccc(F)cc2)Cc2ccccn2)cc1 (stereo not given),-18%,-18%
CCOC(=O)C1=C(COC(=O)c2nc(Cl)ccc2Cl)NC(=O)NC1C (stereo not given),-12%,-10%
O=C(C1CCN(S(=O)(=O)N2CCOCC2)CC1)N1CCN(c2ccc(F)cc2)CC1,-12%,-8%
Cn1ccc(C(=O)OCC(=O)Nc2ccccc2)n1,-6%,-3%
CCOC(=O)c1cc2c(=Cc3ccc(N(C)C)cc3)c3ccccc3n2[n+]1C,162%[activator],134%[activator]
CCc1ccc2c(c1)c(=O)c(C(=O)c1ccccc1)cn2CC(=O)Nc1ccc(C)c(Cl)c1,?,?
Cc1ccc(S(=O)(=O)N2CCN(C)CC2)cc1C(=O)NC1CCCCC1,-6%,-15%
O=C1COc2ccc(S(=O)(=O)N3CCN(c4cccc(C(F)(F)F)c4)CC3)cc2N1,-6%,-22%
CCOc1ccccc1NC(=O)c1cn(C2CCCCC2)c(=O)c2c1c1ccccc1n2C,-26%,-25%
Cc1onc(-c2ccccc2)c1C(=O)NC(=S)NNC(=O)c1ccc(O)cc1O,-9%,-21%
CC(=O)NC(Cc1ccc(F)cc1)C(=O)NC1CCN(S(=O)(=O)c2ccccc2)CC1 (stereo not given),-7%,0%
COc1cccc(CNC(=O)c2ccc(CSc3nc4ccncc4n3Cc3cccc(C)c3)cc2)c1,-10%,-15%
CCC1(C(=O)c2ccccc2)C2c3ccccc3OC(=O)C21C(C)=O (stereo not given),-4%,4%
COc1ccccc1N1CCN(C(c2ccccc2Cl)c2nnnn2C(C)(C)C)CC1 (stereo not given),·,?
Cc1ccc(SCC(=O)Nc2nnc(C(C)(C)C)s2)cc1,-7%,-20%
Cn1c(=O)c2cn(-c3cccc4ccccc34)cc2n(C)c1=O,0%,-9%
CCc1ccc(NC(=O)/C(C#N)=C/c2cn(CC(=O)O)c3ccccc23)cc1,4%,-2%
Cc1ccsc1/C=N/Nc1nc(Cl)c(Cl)cc1Cl,i,-9%
O=C(Nc1ccc(F)cc1)N[C@H]1CC[C@H](CCNS(=O)(=O)c2cccc(Cl)c2)O[C@@H]1CO,9%,-8%
# Continuation.
SMILES,Vaccinia mCherry,VACV Venus inh
Cc1cccc(C(C)C)c1NC(=O)c1ccc(CN(c2ccccc2)S(=O)(=O)c2ccccc2)cc1,-17%,-14%
CCN(C(=O)COc1ccccc1C(=O)NCc1ccccc1)C1CCS(=O)(=O)C1 (stereo not given),-11%,-11%
COc1ccccc1NC(=O)Cc1ccsc1,i,-12%
COc1ccc2c(c1OC)C(=O)OC2Nc1nc(-c2cccc([N+](=O)[O-])c2)cs1 (stereo not given),-6%,-15%
Cc1cccc(OCCC(=O)NCC(=O)Nc2c(C)cccc2C)c1,-9%,-7%
CC(C)c1nc(Cl)c(C#N)c2c1CCCC2,i,7%
O=C(O)C(O)(c1ccc(Cl)cc1)C1(O)CCCC1 (stereo not given),i,-7%
CC1(C(=O)NCc2ccccc2)CCC(=O)N1CCCn1ccnc1 (stereo not given),i,0%
O=C(/C=C/c1ccc2c(c1)OCO2)NCCSCc1c(Cl)cccc1Cl,i,-11%
